AF4-AF9 inh – inhibitors of AF4 peptide binding to AF9, primary screen, biochemical, AlphaScreen, biotin-AF4 peptide, FLAG-AF9, single point | inhibition, % at 10 µM | 350,000 tested, 0.47% active | AID 651704, 2012;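 active = every replicate reaching a set inhibition limit, whatever the replicate mean, cut at about 25% in these data; inconclusive = mean inhibition reaches that limit but some replicates miss it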;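 also: 0% = plate neutral control median and 100% = total signal loss; the record names both 10 and 1 µM as test concentration; the first replicate is given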
Target sequence (P42568 whole entry, looked up): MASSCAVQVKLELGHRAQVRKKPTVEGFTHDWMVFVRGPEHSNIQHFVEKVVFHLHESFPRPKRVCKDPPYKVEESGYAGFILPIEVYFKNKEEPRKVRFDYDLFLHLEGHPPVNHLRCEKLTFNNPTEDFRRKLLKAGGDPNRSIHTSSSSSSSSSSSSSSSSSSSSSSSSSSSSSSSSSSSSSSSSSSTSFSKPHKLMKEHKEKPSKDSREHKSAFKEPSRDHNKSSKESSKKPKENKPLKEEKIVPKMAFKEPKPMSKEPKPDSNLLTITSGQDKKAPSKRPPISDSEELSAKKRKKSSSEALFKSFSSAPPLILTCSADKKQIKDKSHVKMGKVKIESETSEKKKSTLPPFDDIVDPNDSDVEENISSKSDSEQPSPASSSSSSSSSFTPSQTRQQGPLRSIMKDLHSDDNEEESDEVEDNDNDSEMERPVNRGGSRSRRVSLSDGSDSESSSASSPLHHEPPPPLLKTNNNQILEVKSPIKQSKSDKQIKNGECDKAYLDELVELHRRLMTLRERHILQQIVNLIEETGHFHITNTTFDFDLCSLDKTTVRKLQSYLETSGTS
Beta apoptosis – inhibitors of cytokine-induced beta cell apoptosis, primary screen, luminescence; INS-1E cytokine-induced death, ATP luminescence, 48 h; percent of positive-control rescue, neutral wells zero; protection from apoptosis, % (concentration not given with the values); 300,000 tested, 0.8% active;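 active = all replicates at 75% or more, or half of them and the mean; inconclusive = half reach 75% but not the mean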;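 also: 0% = cytokine-treated negative control wells and 100% = positive control rescue; higher means more ATP so stronger rescue from cytokine killing; wells of about 40 µL received 100 nL stock; the first replicate is given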
Calb FLC – C. albicans growth inhibition with fluconazole, primary screen, CaCi-2 strain, Alamar Blue fluorescence; growth inhibition, % (test concentration not listed); C. albicans CaCi-2 (fluconazole-resistant clinical isolate) + fluconazole, 48 h; 300,000 tested, 0.57% active;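 active = most replicates above 75%; inconclusive = exactly half above 75%; inactive = most below 75%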;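 also: all wells also contain fluconazole at 8 µg/ml as a sub-toxic cotreatment; 0% = median of DMSO wells and 100% = median of geldanamycin control wells; wells of about 8 µL received 7.5 nL stock; the first replicate is given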
RanGTP-Impb inh – inhibitors of RanGTP-importin-beta interaction, primary screen, biochemical, FRET, CFP-Ran, YFP-importin-beta, homogeneous | cell-free CFP-Ran/YFP-importin-beta FRET ratio | inhibition, % (no concentration beside the values) | 300,000 tested, 1.1% active;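 active = most replicates above 15%; inconclusive = exactly half above 15%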;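 also: 0% = DMSO wells and 100% = Ran loaded with GDP instead of GTP; wells of about 40 µL received 100 nL stock; the first replicate is given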
rRNA inh HTS – reduced GFP signal of wild-type E. coli, primary screen, bacterial rRNA inhibitor project, GFP/RFP fluorescence, OD600, single point; E. coli WT GFP vs humanized-ribosome RFP mutants, 24 h; hits give low values; DMSO median 0, no signal -100; GFP signal change (wild-type ribosome), % (no concentration beside the values); 350,000 tested, 1.6% active; AID 720706, 2013;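 active = significant combined selectivity score with lowered wild-type GFP, culture density cut under 30%, mutant RFP and density less affected; inactive = any of these conditions unmet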; also: one replicate is shown; some compounds called inactive have numbers as strong as hits
T cruzi inh – inhibitors of intracellular T. cruzi growth, primary screen, luminescence, NIH3T3 host cells | T. cruzi beta-gal in NIH3T3, 90 h | inhibition, % (no concentration beside the values) | 300,000 tested, 1.4% active | AID 1885, 2009;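 active = mean inhibition across valid replicates above about 55%, limit read from the data; inconclusive = mean below that limit but half or more replicates reach it; inactive = mean below it, under half of replicates reach it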;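 also: signal also drops with host cell toxicity which is not excluded here; 0% = plate median of DMSO wells and 100% = zero luminescence signal; higher percent means less beta-gal luminescence so fewer parasites; stock transfer was 50 nL into about 50 µL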
FGF22 binding – binders of human FGF22 protein, primary screen, FGF22 synaptogenesis inhibitor project, biophysical, thermal shift, single point. calls only at 9.99 µM. AID 651658, 2012. 340,000 tested, 1.5% active. Fibroblast growth factor 22 (Homo sapiens), Q9HCT0. recombinant FGF22 thermal shift, SYPRO orange fluorescence; percent of sucrose octasulfate shift, DMSO zero;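 active = melting point raised past a set limit in the mean and every replicate; inconclusive = no clear call; three in four hits are not shown here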
Target sequence (Q9HCT0 whole entry, looked up): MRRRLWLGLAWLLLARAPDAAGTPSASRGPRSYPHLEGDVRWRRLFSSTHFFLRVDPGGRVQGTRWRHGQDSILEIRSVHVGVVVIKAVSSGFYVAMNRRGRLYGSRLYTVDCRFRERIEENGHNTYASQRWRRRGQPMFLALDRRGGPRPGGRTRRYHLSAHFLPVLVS
ALR H2O2 inh – inhibitors of human ALR sulfhydryl oxidase, primary screen, biochemical, H2O2 detection, HRP-luminol luminescence, single point; purified ALR, DTT oxidation; FAD-linked sulfhydryl oxidase ALR (Homo sapiens), P55789; 290,000 tested, 3.8% active; inhibition, % (concentration not given with the values); AID 485317, 2010;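 active = mean and each replicate at 75% or more; inconclusive = only one of the two met; inactive = neither met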;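 also: stock transfer was 7.5 nL into about 7.5 µL; 0% = neutral wells and 100% = wells with inactivated enzyme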
Target sequence (P55789 whole entry, looked up): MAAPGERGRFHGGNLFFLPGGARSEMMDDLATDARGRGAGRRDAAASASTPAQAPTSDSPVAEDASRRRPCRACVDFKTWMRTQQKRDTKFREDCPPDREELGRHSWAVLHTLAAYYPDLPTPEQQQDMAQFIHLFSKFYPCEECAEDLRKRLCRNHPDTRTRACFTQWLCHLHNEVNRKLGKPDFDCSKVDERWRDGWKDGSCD
rRNA inh HTS OD600 – second read-out of rRNA inh HTS, no call of its own (marks repeat the call); OD600 change, %; measured here: OD600 growth;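 optical density of the mix in the first replicate; 0 = DMSO median and -100 = no signal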
rRNA inh HTS RFP – second read-out of rRNA inh HTS, no call of its own (marks repeat the call); RFP signal change, %; measured here: RFP humanized mutant strains;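 first replicate; 0 = DMSO median and -100 = no signal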
An asterisk follows results filed as active; i = inactive; ? = inconclusive; / = no result given. Not all compounds are listed; count on the stated rates, not on these rows.

Below each SMILES: rRNA inh HTS, ALR H2O2 inh, rRNA inh HTS RFP, Beta apoptosis, T cruzi inh, FGF22 binding, rRNA inh HTS OD600, RanGTP-Impb inh, AF4-AF9 inh, Calb FLC
CCCC(=O)NC(c1ccccc1)c1ccc2cccnc2c1O (stereo not drawn)
→ 6, -4, 21, 99*, 58*, i, -8, -0.4, ?, 86*
Cc1ccc(C)c(NC(=O)CCc2ccc(S(=O)(=O)NC3CCCCC3)cc2)c1
→ /, -11, /, 13, 7, /, /, -4.4, /, -12
CCC1CCCCN1S(=O)(=O)c1ccc(NC(=O)c2cccnc2)cc1 (stereo not drawn)
→ -8, -4, -2.8, -3, 4, i, -28, 1.4, 1.4, 7
Cc1ccc(C)c(N2N=C(C(=O)Nc3ccc(S(=O)(=O)N4CCCC4)cc3)CCC2=O)c1
→ 14, 0, -3.2, -3, 8, i, 8, -3.8, 4.5, 0
Cc1ccc(C(=O)N/C(=C\c2ccccc2)C(=O)NCc2cccnc2)cc1
→ -1, -14, -1.0, 5, -15, i, -6, 3.4, -4.3, -20
CN1CCN(S(=O)(=O)c2ccc(NC(=O)COc3ccccc3)cc2)CC1
→ 6, -15, 0.0, 2, -42, i, 7, 10, 1.5, ?
CCNC(=O)N1CCC(n2nccc2NC(=O)CCCc2ccccc2)CC1
→ 5, -22, 0.0, 1, -7, i, 4, -4.2, -0.8, 5
Cc1cc(Nc2ccc(C)c(C)c2)c2ccccc2n1
→ 26, /, -1.7, 43, 43, i, 12, 3.9, 5.8, 12
NS(=O)(=O)c1ccc(NC(=S)NC(=O)c2ccc3c(c2)OCO3)cc1
→ 12, -4, 0.1, 3, -13, i, 6, 3.7, 2.1, 24
COc1ccc2cc3cc(C(=O)N4CCN(c5ccccn5)CC4)oc3nc2c1
→ 11, -2, -0.6, 0, 8, i, 5, 1.9, 2.4, 20
CCOc1ccc(C(=O)NC2CCN(C(=O)Nc3ccc(F)cc3)CC2)cc1
→ 0, -1, -0.1, 3, -5, i, 5, -0.4, 2.2, -4
Cc1occc1C(=O)NNS(=O)(=O)c1ccc([N+](=O)[O-])cc1
→ 3, /, -2.0, -5, 6, i, 25, -0.9, 0.0, -7
COC(=O)CNC(=O)CSc1nnc(C)c(=O)[nH]1
→ /, -1, /, -2, -4, /, /, -3.8, /, 18
Cc1cccc(Nc2nc(C)nc3c2oc2ccccc23)c1
→ -26, -3, -13, 12, 6, i, -62, -1.4, -0.2, 13
O=C(NCc1ccc2c(c1)OCO2)C1CCCN1S(=O)(=O)c1ccc(F)cc1 (stereo not drawn)
→ 8, /, 0.6, 3, -14, i, 5, -0.1, 3.5, -3
O=C(CCS(=O)(=O)c1ccccc1)N1CCN(c2cccc(C(F)(F)F)c2)CC1
→ -26, -1, -3.4, 4, 0, i, -24, -2.2, 0.5, 15
COc1cc(OC)c(C2N(c3ccc(Cl)cc3)C(=O)C3CCCN32)cc1OC (stereo not drawn)
→ -1, -34, -0.8, -3, -3, i, 7, 5.0, 2.1, 0
C=CCC[C@H](Cc1ccc(F)cc1)C(=O)OC[C@@H](NC(=O)[C@@H](CC=C)CC(=O)N(CCO)Cc1ccccc1)C(C)(C)C
→ 8, -2, -0.1, 4, /, i, 10, /, /, /
CC1(C)CC2(CCO1)CNC(=O)O2 (stereo not drawn)
→ /, 0, /, -7, -1, /, /, 2.0, /, -10
O=[N+]([O-])c1cc(S(=O)(=O)N2CCOCC2)ccc1NS(=O)(=O)c1ccccc1
→ -5, -3, -4.4, -1, /, /, 3, /, -2.1, /
CC1(c2nnc(-c3ccc(F)cc3)o2)CC(c2cccnc2)=NO1 (stereo not drawn)
→ 4, 3, 13, -8, -12, i, 6, -0.2, -3.4, -1
COCc1nnc(NC(=O)c2ccc(S(=O)(=O)N(C)Cc3ccccc3)cc2)o1
→ -46, 3, -13, 5, -21, i, -68, 3.8, 1.4, 5
CCSc1nnc(NC(=O)c2cnccn2)s1
→ /, 2, /, -6, -5, /, /, 11, /, -1
COC(=O)CSc1nc2ccc(N)cc2s1
→ 1, 99*, 0.4, -5, -14, i, 0, 3.1, -10, -19
Cc1ccc(C(=O)NCC(=O)OCC(=O)NC2CCCC(C)C2C)s1 (stereo not drawn)
→ -16, 11, 7.1, -7, -12, i, -2, -0.2, 0.8, 9
O=C(CCCCn1c(=O)[nH]c2ccsc2c1=O)NCCc1ccccc1
→ -2, -7, -7.7, 6, -9, i, -1, -2.7, 1.6, 1
O=C(Nc1ccc(C(=O)Nc2ccccc2Cl)cc1)c1cccnc1
→ -20*, -13, 2.3*, 99*, /, i, -11*, /, -1.3, 3
O=C(NNC(=S)Nc1ccccc1Cl)c1ccccc1
→ -2, ?, 0.4, 5, -13, i, -5, 10, -7.3, 5
CN(C(=O)COC(=O)c1ccc2c(c1)OCO2)C1CCCCC1
→ -3, -6, 13, -6, /, i, 0, /, -7.2, /
CCN(CC(=O)Nc1c(F)cccc1F)C(=O)/C=C/c1ccc(Br)s1
→ -12, 0, -0.5, -1, -8, i, -11, 7.4, 0.8, -10
CCOC(=O)N1CCC(Nc2nc(OC)nc(OC)n2)CC1
→ /, -3, /, -2, -5, /, /, -0.5, /, 0
Cn1cc(CN2CCC(C(=O)Nc3cccc(-c4cscn4)c3)CC2)cn1
→ 1, -29, 0.8, 0, 7, i, 14, -13, -0.4, -9
Cc1ccccc1C(=O)N1CCN(c2ccc(NC(=O)c3ccc4c(c3)OCCO4)cc2)CC1
→ -2, 3, 4.6, /, 21, i, -1, -1.6, 2.0, 6
O=C1c2ccccc2C(=O)N1CCCc1c[nH]c2ccccc12
→ /, 1, /, -6, 22, /, /, 7.0, /, 1
CCN(CC(=O)Nc1ccccc1C(F)(F)F)C(=O)c1cc(-c2ccccc2)nn1-c1ccccc1
→ -12, /, 3.2, -1, 28, i, -10, 0.2, -2.1, 3
OC(CNCc1ccccc1)Cn1ccc2ccccc21 (stereo not drawn)
→ 14, -8, 3.4, -7, 2, i, -2, 4.4, ?, -9
O=C(Nc1cc(C(F)(F)F)ccc1N1CCOCC1)c1cccnc1Cl
→ /, -11, /, -6, -11, /, /, -1.8, /, -3
O=C(NC1CCCC1)C1CCC(=O)N1C1CCCC1 (stereo not drawn)
→ /, -3, /, -5, -8, /, /, 1.0, /, -12
CC1CCCCN1C(=O)c1cccc(NC(=O)c2ccccc2)c1 (stereo not drawn)
→ -3, -8, -2.3, -5, -5, i, -1, -2.8, -2.4, -29
O=C(NCC1CC1)c1ccc(Nc2nc3ccc(Br)cc3[nH]2)cc1
→ -58, 98*, -15, -4, 1, i, -78, 4.6, /, 0
COc1ccc(CNS(=O)(=O)c2cc3c(cc2C)N(C)CCO3)cc1
→ 2, 14, -4.2, 3, -1, i, -8, -4.5, -2.4, -6
O=C(COC(=O)c1ccc(O)cc1)Nc1cccc(S(=O)(=O)N2CCCCC2)c1
→ -13, -6, -5.4, -2, 3, /, -20, 2.2, 1.3, 1
COc1ccccc1/C=N/NC(=O)c1nnn(-c2nonc2N)c1CSC1=NCCS1
→ /, -1, /, -3, -18, /, /, -1.3, /, 0
COc1cccc(NC(=O)c2nn(C)c(C(=O)Nc3cccc(OC)c3)c2[N+](=O)[O-])c1
→ -40*, -11, -3.4*, 1, 1, i, -30*, 1.4, -3.1, 6
CSCCOC(=O)COc1ccc(/C=N/NC(=O)c2nn(C)cc2Cl)cc1
→ /, 0, /, 17, -8, /, /, 0.3, /, -13
O=C(NCCC1=CCCCC1)c1cnccn1
→ /, 19, /, -5, -3, /, /, -0.7, /, 1
Cc1ccc(C(=O)Nc2cccc([N+](=O)[O-])c2)cc1S(=O)(=O)Nc1cccc(C(=O)O)c1
→ 14, 5, -4.4, 4, -3, i, 6, -1.2, -2.6, -8
COc1ccc2cc(Br)ccc2c1CC(=O)N(C)C
→ 8, -22, 2.1, -6, -14, i, 3, 0.9, -2.2, 13
CCC(Sc1ncccc1C(=O)Oc1cccc([N+](=O)[O-])c1)C(=O)Nc1ccccc1OC (stereo not drawn)
→ 8, -8, -2.9, 2, -24, i, 2, 0.0, 5.0, -5
Cc1ccsc1C(=O)NNC(=S)NCC(C)C
→ 2, 32, -0.8, -10, -8, i, -9, ?, 0.5, 24
CCOC(=O)C1(Cc2ccccc2)CCCN(CCO)C1 (stereo not drawn)
→ 21, 0, 0.8, -13, 1, i, 14, 5.3, 0.2, 6
Cc1ccc(Nc2nnc(-c3ccc4c(c3)OCO4)o2)c(C)c1
→ 4, 1, 6.2, -5, 2, i, 12, 6.9, 0.9, -15
CC(NC(=O)c1ccc2c(c1)OCO2)c1ccccc1 (stereo not drawn)
→ 2, 2, -1.0, -6, -7, i, 11, ?, -5.1, -2
Clc1ccc(C2[C@H]3CN(CC4CCCCC4)[C@H](c4ccccc4)C34CC2(c2cccnc2)C4)cn1 (stereo partly drawn)
→ 7, /, 14, 3, 28, i, 0, -1.3, -11, 6
COc1ccc(Br)c(C(=O)OCC(=O)NC2CCCCCC2)c1
→ -23, /, -5.2, 2, /, i, -42, /, 0.2, /
COC(=O)c1ccc(C(NC(=O)OCc2ccccc2)/C(F)=C/[C@@H](C)C(=O)O)cc1 (stereo partly drawn)
→ -8, -9, -5.4, -4, -6, i, 0, -3.4, -0.8, -4
O=C1Nc2ccccc2C12OCC1(CO2)COC2(OC1)C(=O)Nc1ccccc12 (stereo not drawn)
→ /, /, /, -2, 39, /, /, -1.4, /, -15
CC(C)Cn1c(-c2nn(C)cc2Cl)n[nH]c1=S
→ /, 10, /, -5, 2, /, /, 6.1, /, 6
O=c1c2ccccc2nc(-c2ccccc2)n1CCN1CCOCC1
→ /, /, /, -2, -9, /, /, -0.7, /, -4
NNc1nc(N)c2c(n1)-c1ccccc1CC21CCCC1
→ -11, -6, -4.1, 1, 20, i, -17, 2.2, 4.2, -18

New compounds follow:
Below each SMILES: rRNA inh HTS, ALR H2O2 inh, rRNA inh HTS RFP, Beta apoptosis, T cruzi inh, FGF22 binding, rRNA inh HTS OD600, RanGTP-Impb inh, AF4-AF9 inh, Calb FLC
CCN(CC)C1CCN(C(=O)c2cc(COc3ccc(-n4cncn4)cc3)on2)C1 (stereo not drawn)
→ 7, -6, 1.3, -4, 18, i, 7, 7.9, 0.9, 6
CC(Sc1nc(C(C)(C)C)cc(-c2ccccc2)c1C#N)C(=O)Nc1ccccc1 (stereo not drawn)
→ /, 3, /, -1, 28, /, /, 2.1, /, -9
O=c1sc2ccccc2n1COc1ccc(Cl)cc1
→ /, -3, /, -2, -4, /, /, -0.8, /, 5
Cc1nnc(SC(C)C(=O)Nc2ccc(Cl)cc2Cl)[nH]c1=O (stereo not drawn)
→ -11, 1, -5.4, 4, /, i, -26, /, -6.4, /

Screening data (PubChem BioAssay)
